# TAR Tat displ: TAR RNA-Tat peptide displacers, HIV-1, primary screen, biochemical, FRET, FAM/TAMRA-labeled Tat; HIV-1 TAR RNA, Tat peptide displacement FRET; active compounds read high; z-score (concentration not given with the values); 100,000 compounds, 0.6% hits; AID 1259389, 2018;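 further: score is relative to mean and SD of negative controls; some compounds called inactive have numbers as strong as hits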
# CDC25B-CDK2 inh: primary biochemical HTRF screen for blockers of M-phase inducer phosphatase 2 binding to CDK2/cyclin A | P30305+P24941 | HTRF CDC25B-CDK2/CyclinA binding, anti-His/anti-Flag; active compounds read high | z-score (concentration not given with the values) | 94,000 compounds, 0.72% hits | AID 1259370, 2018;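 further: score is relative to mean and SD of negative controls; strong numbers were not always called active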
# An asterisk follows results filed as active; . = no result given.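 How the source made its calls: active means z-score from 3 up in half or more of its runs; inactive means the rest.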 Not a hit list, and some 0.89% of all compounds hit somewhere here.
SMILES,TAR Tat displ,CDC25B-CDK2 inh
Cc1cc(NCc2ccncc2)ccc1Br,0.91,-0.04
CCn1c(=O)sc2cc(NC(=O)C3CC(=O)N(c4ccccc4)C3)ccc21 (stereo not drawn),0.83,.
O=C(CCS(=O)(=O)c1cc(Br)cc2c1N(C(=O)C1CC1)CC2)Nc1ccc(F)cc1,-1.32,0.47
COc1ccc(-c2n[nH]c3c2C(c2ccc(C(C)(C)C)cc2)NC3=O)cc1 (stereo not drawn),0.64,.
COc1cccc(-c2ccc(-c3noc(-c4cccc(OC)c4)n3)c(OC)n2)c1,-1.37,-1.2
O=C(/C=C(\O)c1ccccc1)C(=O)Nc1ccccn1,.,-1.41
CCOCCOC(=O)C1=C(C)NC2=C(C(=O)CC(c3ccccc3)C2)C1c1cccc(F)c1 (stereo not drawn),-0.71,-1.85
Cc1sc2nc(SCC(=O)NC3CCCCC3)n(C)c(=O)c2c1C,-0.52,-0.75
Cc1cc2ccccc2n1-c1ccc(C(=O)NCc2cccs2)s1,-0.55,.
NC(=O)c1ccc(-c2ncc3c(n2)-c2cc(F)ccc2OC3)cc1,.,-0.71
COCCN(CCOC)c1ncnc2c1cnn2-c1ccc(Cl)cc1,.,-2.04
COc1ccc2[nH]c(C)c(CN3CCCCC3)c(=O)c2c1,1.33,-0.69
CCCC(=O)Nc1ccc(OCc2cc(=O)n3c(C)csc3n2)cc1,0.03,-0.89
Cc1ccc(N2CC(C(=O)Nc3ccc4[nH]c(=O)sc4c3)CC2=O)cc1 (stereo not drawn),1.33,.
CCC(C)N(CCCNC(=O)c1nn(C)c2c1CS(=O)(=O)c1ccccc1-2)Cc1ccco1 (stereo not drawn),2.31,-0.31
Cc1ccc(S(=O)(=O)NCCc2sc3nc(-c4ccccc4)nn3c2C)cc1C,1.23,.
O=C1c2ccccc2C(Nc2ccccc2)N1c1ccc(Cl)cn1 (stereo not drawn),-0.29,-1.32
Cc1cc2c(cc3c(=O)n(CC(=O)NCc4ccccn4)ncn32)s1,0.28,-1.01
CCOc1ccc(NS(=O)(=O)c2ccc3[nH]c4c(c3c2)CCCCC4)cc1,1.44,.
O=C1c2ccncc2C(=O)N1CCCc1ccccc1,0.94,.
O=C(/C=C/c1ccc(-c2ccc(Br)cc2)o1)Nc1cccc(C(F)(F)F)c1,.,-2.19
O=C1C(=O)N2C(=C1C(=O)N1CCOCC1)c1ccccc1CC21CCCC1,2.68,0.52
O=C(c1cnn(-c2cccc(F)c2)c1-n1cccc1)N1CCC(N2CCCCC2)CC1,0.21,.
CCCCCC(C)NC(=O)C1c2ccccc2Oc2ccccc21 (stereo not drawn),0.48,-1.22
Cc1cccc(-n2c(C)c(C)c3c2ncn2nc(-c4ccccc4)nc32)c1C,1.21,-2.16
O=S(=O)(Nc1ccccc1N1CCCCC1)c1cccs1,.,-1.95
Cc1nc2nc(NCc3ccc(C(C)C)cc3)[nH]n2c(=O)c1C,0.96,-0.5
O=C(CSc1nnnn1-c1ccccc1)c1ccccc1,0.36,-1.57
CCN1CCN(C(=O)CCc2nnc3ccc(N(CC)CC)nn23)CC1,0.67,.
CCOCCc1nn2c(=O)cc(COC(=O)CCc3ccccc3)nc2s1,-0.1,.
O=C(Nc1cccc(Cl)c1)c1cc2c(s1)-c1ccsc1CC2,-1.07,.
Cc1ccccc1-n1cc(-c2ccccc2)c2c(NCc3ccco3)ncnc21,-0.01,-2.55
COc1ccc(OC)c(CNS(=O)(=O)c2ccc3[nH]c(=O)ccc3c2)c1,1.06,.
CC(C)OC(=O)c1cccc(C(=O)O)n1,1.7,1.7
CC(C)N(C)C1CCN(S(=O)(=O)c2ccc(-c3ccc(=O)[nH]n3)s2)CC1,1.78,.
O=c1[nH]nc(-c2ccccc2)c2c1Nc1nnnn1C2c1ccccc1Cl (stereo not drawn),1.82,-0.98
COCCc1nn2c(=O)cc(COC(=O)C(c3ccccc3)c3ccccc3)nc2s1,0.67,.
CC(=O)N1CCC(C)Sc2ccc(S(=O)(=O)NCc3ccco3)cc21 (stereo not drawn),0.38,.
CCCN[C@H]1CS(=O)(=O)C[C@@H]1S(=O)(=O)c1ccc(F)cc1,1.79,-2.3
C#CC(/C=C/C)OC(=O)c1ccccc1C(=O)O (stereo not drawn),.,-3.58
Cc1cc(NC(=O)c2ccc3c(c2)OCO3)no1,1.56,-0.56
CCC(=O)N1CCc2cc(Br)cc(S(=O)(=O)CCC(=O)N3CCCCC3CC)c21 (stereo not drawn),-1.55,-0.39
C=C(C)CN1CCN(c2cc(C)c(C#N)c3nc4ccccc4n23)CC1,-0.11,-2.29
Cc1ccc(OCCn2c(SCCO)nc3ccccc32)cc1,1.15,-0.65
CSCC[C@H](NC(C)=O)C(=O)O,.,-1.62
COc1ccc(NC(=O)C2=Cc3cc(Cl)cc(OC)c3OC=C2)cc1,0.31,-1.34
CCCS(=O)(=O)c1nc(S(=O)(=O)c2ccc(C)cc2)c(NCCCN2CCCC2=O)s1,-1.6,0.33
CCCC(=O)Nc1ncnc2c1ncn2[C@H]1O[C@H]2COP(=O)(O)O[C@@H]2[C@@H]1OC(=O)CCC,-0.57,.

# 14 of these compounds in a different format.
SMILES	TAR Tat displ	CDC25B-CDK2 inh
CC(C)OC(=O)c1cccc(C(=O)O)n1	1.7	1.7
CC(C)N(C)C1CCN(S(=O)(=O)c2ccc(-c3ccc(=O)[nH]n3)s2)CC1	1.78	.
O=c1[nH]nc(-c2ccccc2)c2c1Nc1nnnn1C2c1ccccc1Cl (stereo not drawn)	1.82	-0.98
COCCc1nn2c(=O)cc(COC(=O)C(c3ccccc3)c3ccccc3)nc2s1	0.67	.
CC(=O)N1CCC(C)Sc2ccc(S(=O)(=O)NCc3ccco3)cc21 (stereo not drawn)	0.38	.
CCCN[C@H]1CS(=O)(=O)C[C@@H]1S(=O)(=O)c1ccc(F)cc1	1.79	-2.3
C#CC(/C=C/C)OC(=O)c1ccccc1C(=O)O (stereo not drawn)	.	-3.58
Cc1cc(NC(=O)c2ccc3c(c2)OCO3)no1	1.56	-0.56
CCC(=O)N1CCc2cc(Br)cc(S(=O)(=O)CCC(=O)N3CCCCC3CC)c21 (stereo not drawn)	-1.55	-0.39
C=C(C)CN1CCN(c2cc(C)c(C#N)c3nc4ccccc4n23)CC1	-0.11	-2.29
Cc1ccc(OCCn2c(SCCO)nc3ccccc32)cc1	1.15	-0.65
CSCC[C@H](NC(C)=O)C(=O)O	.	-1.62
COc1ccc(NC(=O)C2=Cc3cc(Cl)cc(OC)c3OC=C2)cc1	0.31	-1.34
CCCS(=O)(=O)c1nc(S(=O)(=O)c2ccc(C)cc2)c(NCCCN2CCCC2=O)s1	-1.6	0.33

# (next part)
SMILES,TAR Tat displ,CDC25B-CDK2 inh
Cc1ccc2nc(NCCO)c3nnnn3c2c1,-3.87,.
CC(=O)c1c(C)oc2c(Br)cc(NS(=O)(=O)c3ccccc3)cc12,.,-0.09
COC(=O)c1cc2sccc2n1CC(=O)Nc1ccc2c(c1)OCCO2,0.87,-0.97
Cc1ccc(Nc2cc(N3CCN(S(=O)(=O)c4cc(C)ccc4C)CC3)nc(C)n2)cc1,1.19,-0.13
O=C(CSc1ccc2nnc(-c3ccc(F)cc3)n2n1)NCC1CCCO1 (stereo not drawn),.,-0.96
COc1ccc(-c2noc(COc3ccc(Cl)cc3)n2)cc1,0.89,-0.6
O=C1C2Sc3[nH]c(=O)sc3C(c3ccc(O)cc3)C2C(=O)N1c1ccc(Cl)cc1 (stereo not drawn),.,-1.25
CC(=O)Oc1ccc(-c2nc3ccc(OC(C)=O)cc3c(=O)o2)cc1,-0.31,-0.39
Cc1nn(-c2ccc(N3CCCC3)nn2)c(C)c1CCC(=O)NCCc1c[nH]c2ccccc12,0.34,.
N/C(=N\S(=O)(=O)c1cc(Cl)c(Oc2ccc([N+](=O)[O-])cc2)c(Cl)c1)c1ccccn1,.,-1.38
Cn1cc(/C=C/c2nc3ccccc3c(=O)n2CCc2ccccc2)c2ccccc21,-2.07,-1.13
Cc1nc2ccccc2n1Cc1ccc(C(C)(C)C)cc1,.,-0.79
Cc1ccn2c(=O)c(NC(=O)Cc3ccc(Cl)cc3)c(C)nc2c1,1.77,.
NC(=S)N/N=C/c1ccc(-c2ccc(C(F)(F)F)cc2[N+](=O)[O-])o1,.,-0.22
CN(C)CCNC(=O)c1ccc(N2CCOc3ccccc32)s1,0.38,.
CCCCCCCCc1ccc(-c2ccc(C(=O)O)cc2)cc1,.,-1.5
CCc1cc2c(NCCCOC)ncnc2s1,1.24,.
COc1cc(C)c(S(=O)(=O)N2CCc3cc4cccc(C)c4nc32)cc1C,0.58,2.49
c1coc(-c2nc3sc(-c4ccco4)nc3s2)c1,-0.46,-0.44
O=C(Nc1ccccc1OCc1cc(=O)n2ccccc2n1)c1cccs1,-1.38,.
O=C1c2cccc3cccc(c23)C(=O)N1CCN1CCN(S(=O)(=O)c2cccs2)CC1,.,-0.49
O=C(N1CCC(n2nc(-c3ccccc3)oc2=O)CC1)C1(c2ccc(Cl)cc2)CC1,0.46,0.74
CN(C)S(=O)(=O)c1ccc2nc(NC(=O)COc3ccc(Cl)cc3)sc2c1,0.79,.
Cc1cc(C)cc(NC(=O)c2cnc3sc(N4CCOCC4)nn3c2=O)c1,0.02,.
COC(=O)c1cc(S(=O)(=O)NCCc2ccco2)cn1C,-0.36,.
Cc1ccc(-c2cnc(C3CC3)o2)cc1S(=O)(=O)NC1CCCC1,-0.15,.
Cc1cc(N2CCOCC2)nc(-n2cnc(SCCOc3ccccc3)n2)n1,2.05,-0.71
O=C(CCCN1C(=O)CSc2ncccc21)N1CCN(c2ccccn2)CC1,-1.25,-1.44
OCCN(CCO)c1cccc(Cl)c1,.,-0.34
COCc1cc(=O)n2[nH]c(Nc3cc(Cl)ccc3C)nc2n1,.,-2.97
O=C(c1ccc(F)cc1)N(Cc1ccco1)C1CCS(=O)(=O)C1 (stereo not drawn),2.12,-1.15
CC1(C)C(=O)OC(c2ccccc2)C2(CCCCC2)C1=O (stereo not drawn),.,-2.01
COc1ccc(C)cc1-n1nnc(-c2nc(-c3ccccc3C)no2)c1N,0.12,.
O=C(Cn1c(=O)oc2cccnc21)Nc1ccccc1Oc1ccc(Cl)cc1Cl,.,-3.24
CCCCN(CC)CCNS(=O)(=O)c1ccc(-c2ccc(=O)[nH]n2)s1,0.57,.
Cc1noc(/C=C/c2cccs2)c1S(=O)(=O)N1CCCC(C(=O)NC2CCCCC2)C1 (stereo not drawn),0.53,0.56
CC1CSc2ccc(S(=O)(=O)NCCCc3ccco3)cc2NC1=O (stereo not drawn),1.15,.
CCOC(=O)C1CCN(S(=O)(=O)c2ccc3[nH]c(=O)ccc3c2)CC1,1.44,.
COc1cc(C2CC(=O)Nc3nc(N)[nH]c(=O)c32)ccc1OCc1ccccc1 (stereo not drawn),0.5,-0.15
COc1ccc(S(=O)(=O)N2CCN(c3ccccn3)CC2)cc1OC,0.93,-1.02
c1coc(CNc2ncnc3c2sc2nc(N4CCOCC4)c4c(c23)CCCC4)c1,.,3.02
Cn1c(=O)n(C)c2cc(S(=O)(=O)NCC(=O)O)ccc21,-0.25,-1.88
Cc1cc(=O)n2[nH]cc(-c3ccc(Cl)cc3)c2n1,-0.38,-1.86
CCOC(=O)C1=C(C)Nc2nc(SCC)nn2C1c1ccc(C)cc1 (stereo not drawn),0.16,-1.06
COc1ccc2ccc(=O)oc2c1CC=C(C)C,3.07,.
CN(C)c1ccc(C(=O)NNS(=O)(=O)c2cccc(C(F)(F)F)c2)cc1,.,-1.11
CC(c1ccco1)N(C(=O)c1sc2ccccc2c1Cl)c1ccccn1 (stereo not drawn),.,-1.47
CC1=CC(C)(C)Nc2ccc(OC(=O)COc3ccccc3)cc21,-6.03,-2.27
OCCN1CCN(c2nnc(-c3ccccc3)cc2-c2ccccc2)CC1,-0.5,-1.24
Cc1ccc(/C=C/c2noc(-c3ccccc3O)n2)o1,-3.66,-1.07
Cc1cc(C)c2ccc(C3C(=O)c4ccccc4C3=O)nc2c1,-4.23,4.22
Cc1nc2ccccc2c2ccccc12,.,-0.98
COCCCn1c(SCC(=O)Nc2ccc(C(C)C)cc2)nnc1-c1csc(C)n1,.,0.03
CCc1cc2c3c([nH]c2cc1S(=O)(=O)Nc1ccc2c(c1)OCO2)CCCC3=O,2.08,.
O=[N+]([O-])c1cc(C(F)(F)F)ccc1OCCO,.,-2.17
COc1ccc(OC)c(CNS(=O)(=O)c2cn(C)cn2)c1,2.22,.
Cc1cccc(-c2nc(NCc3cccnc3)c3ccccc3n2)c1,-1.26,0.46
CC1CCCN(c2nnc(NC(=O)Nc3ccccc3Br)s2)C1 (stereo not drawn),0.3,-1.02
COC(=O)C(CC(C)C)NC(=O)CSc1nc(C)cc(=O)[nH]1 (stereo not drawn),0.85,-0.01
CCCCSc1nnc2c(n1)OC(c1ccc(C)s1)Nc1ccc(Br)cc1-2 (stereo not drawn),.,-0.97

# More entries follow:
SMILES,TAR Tat displ,CDC25B-CDK2 inh
c1cc2cc(C3=NCCN3)ccc2cc1C1=NCCN1,0.49,-0.9
Cc1cccc(-c2nc(C(N)=O)c3[nH]c(=O)n(CC4CCCO4)c3n2)c1 (stereo not drawn),1.6,.
CC1CCN(C(=O)CN2C(=O)c3cccnc3Oc3ccc(Cl)cc32)CC1,1.42,.
CCN1CCN(CCCNC(=O)c2noc3c2CCCCC3)CC1,1.19,.
O=C1c2cnccc2CN1c1ccccc1Cl,0.49,.
COc1cc(C(=O)NCCN=C2NS(=O)(=O)c3ccccc32)cc(OC)c1OC,.,0.32
Cc1csc2ncc(C(=O)N(C)Cc3ccccc3)c(=O)n12,1.16,-0.84
Cn1cc(S(=O)(=O)N2CCOCC2)cc1C(=O)Nc1ccc(Cl)cc1,1.92,.
